TRPV1 potentiator: HTS Assay for Compounds that Act as Potentiators of the Vanilloid Receptor 1; TRPV1-expressing cells, Fluo-8 calcium influx, capsaicin EC20 potentiation; host cell line not named in the record; control for the full effect not named in the record; actives 0.02% (n = 320,000); AID 540277, 2011; Transient receptor potential cation channel subfamily V member 1 (Homo sapiens), Q8NER1; potentiation, % at 8.33 µM; active means potentiation above 80%; inconclusive means 30% to 80%; inactive means below 30%; further: 0% is about no effect
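Fluo-8 calcium influx in TRPV1-expressing cells, kinetic read (ex 480/em 520 nm). Compound added and read 3 min for agonist activity, followed by capsaicin at EC20 final and 2 min further read for enhancement.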
gsp antagonist: qHTS for Antagonists of gsp, the Etiologic Mutation Responsible for Fibrous Dysplasia/McCune-Albright Syndrome: qHTS; gsp-mutant cells, cAMP HTRF, 30 min; control for the full effect not named in the record; Potency, µM (titrated, usually from 76.9 µM), inactives show at the top dose activity change, negative = inhibition, most hits filed as inhibitors; actives 0.4% (n = 340,000); AID 624288, 2012; active = falling curve of any shape with a large fitted effect; inconclusive = falling curve, mostly with a smaller effect; inactive = flat or rising curve; cell line not stated here;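 further: intracellular cAMP measured with PDE inhibitor Ro 20-1724 present during compound exposure; potency means the concentration at half of the fitted maximal effect; on the % scale 0 is the no-effect control and ±100 the full control effect; nearly all actives have a fitted effect of over 65% in size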
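HTRF cAMP read-out (cAMP-d2 plus anti-cAMP antibody-K in lysis buffer, 30 min RT). Before lysis, cells are exposed to compounds with […] for 30 min at 37C in DPBS containing Ca/Mg, BSA and Tween 20.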
ClpP mod: qHTS Assay for Activators of ClpP; ATP-dependent Clp protease proteolytic subunit (Bacillus subtilis (strain 168)), P80244; Potency, µM (doses to about 57.5 µM), without a hit: at the top dose activity change, negative = active; actives 1.9% (n = 340,000); purified B. subtilis ClpP, FRET peptide cleavage, 20 min; active = well fitted falling curve with a large enough effect; inconclusive = small, poorly fitted or top-dose-only effect; inactive = no such curve, though single readings can be large or run the other way; further: potency means the concentration at half of the fitted maximal effect; the source files actives as falling curves though it sought activators and does not explain the sign; nearly all actives have a fitted effect of over 65% in size; many hits overshoot -100%
Target sequence (P80244 whole entry, looked up): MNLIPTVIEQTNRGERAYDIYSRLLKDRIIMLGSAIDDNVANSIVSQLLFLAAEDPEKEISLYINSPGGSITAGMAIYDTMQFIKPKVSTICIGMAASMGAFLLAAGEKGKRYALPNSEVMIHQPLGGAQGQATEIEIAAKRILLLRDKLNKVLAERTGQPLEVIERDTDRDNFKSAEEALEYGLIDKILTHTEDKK
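ClpP 10 microg/mL final, pH 8 Tris/KCl buffer with BSA, glycerol, Tween-20; compound pinned in; FRET-FV substrate; RT 20 min; Ex320/Em430; ΔFRET vs ADEP 5.8 microM, DMSO, no enzyme.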
Sfp PPTase inh: qHTS Assay for Inhibitors of Bacillus subtilis Sfp phosphopantetheinyl transferase (PPTase). 4'-phosphopantetheinyl transferase ffp (Bacillus subtilis), Q9F4F7. Biochemical Sfp PPTase activity, qHTS. Potency, µM, for the others: max response, negative = inhibition, most hits filed as inhibitors. actives 3.5% (n = 310,000); active means well fitted inhibition curve with a large enough effect; inconclusive means small, poorly fitted or top-dose-only effect, or another doubt; inactive means no such curve, though single readings can be large or run the other way;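 further: the enzyme is Sfp with the accession as filed and its product quenches rhodamine fluorescence; potency means the concentration at half of the fitted maximal effect; 0% = enzyme reaction without inhibitor and -100% = no enzyme wells; top concentration of the series not given in the record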
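Sfp 15 nM + cpd, 15 min RT; start w/ rhodamine-CoA 5 uM, BHQ-2-YbbR 12.5 uM (final); 50 mM Hepes pH 7.6, 10 mM MgCl2, 0.01% NP-40, 0.01% BSA; read 525/598 nm at 0 and 30 min.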
D2 potentiator: Beta-Arrestin HTS for Positive Allosteric Modulators of the Human D2 Dopamine Receptor: Potentiators; DiscoveRx D2 beta-arrestin cells, luminescence, 90 min; 100% = 57 uM dopamine signal; D(2) dopamine receptor (Homo sapiens), P14416; AID 624464, 2012; actives 0.23% (n = 360,000); potentiation, % (test concentration not listed); active = potentiation of 50% or more; inconclusive = 30% to 50%; inactive = 30% or less;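 further: compound concentration not given in the record; tested on top of an EC20 dose of dopamine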
Target sequence (P14416 whole entry, looked up): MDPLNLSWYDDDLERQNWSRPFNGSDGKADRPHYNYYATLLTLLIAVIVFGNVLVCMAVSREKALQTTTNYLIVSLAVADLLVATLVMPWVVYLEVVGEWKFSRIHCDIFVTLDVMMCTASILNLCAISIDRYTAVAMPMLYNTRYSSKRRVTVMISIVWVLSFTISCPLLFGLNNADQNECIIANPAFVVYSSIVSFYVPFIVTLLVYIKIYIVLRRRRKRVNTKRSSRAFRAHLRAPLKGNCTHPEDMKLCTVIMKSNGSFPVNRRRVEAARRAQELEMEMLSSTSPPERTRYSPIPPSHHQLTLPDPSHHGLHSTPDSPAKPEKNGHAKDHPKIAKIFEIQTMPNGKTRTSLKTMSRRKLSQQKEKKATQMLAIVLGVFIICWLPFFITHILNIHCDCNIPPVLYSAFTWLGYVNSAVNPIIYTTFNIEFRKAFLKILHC
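D2 cells co-treated with compound plus 50 nM dopamine (EC20) for 90 min at 37 deg C to detect potentiation. Beta-arrestin recruitment was read as enzyme-fragment luminescence after 1 h at ambient temperature. Full response was set by 57 uM dopamine.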
Menin-MLL FL inh: qHTS Assay for Inhibitors Targeting the Menin-MLL Interaction in MLL Related Leukemias: Competition With Fluorescein Labeled MLL-derived Peptide | Fluorescence polarization, fluorescein-MLL peptide displacement from menin | FP activity change, % at 61.4 µM | 290,000 tested, under 10 active | AID 1766, 2009; inconclusive = falling polarisation curve, or a change in total fluorescence; inactive = total fluorescence flat and polarisation flat or rising; no compound was filed as active; the % refers to the polarisation; negative = inhibition;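 further: % of control where 0% means no effect; inhibitors lower the polarisation; unlabelled MLL peptide was the positive control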
gsp agonist: qHTS for Agonist of gsp, the Etiologic Mutation Responsible for Fibrous Dysplasia/McCune-Albright Syndrome: qHTS | actives 0.13% (n = 340,000) | Potency, µM (doses to about 76.9 µM), without a hit: at the top dose activation (cAMP increase), most hits filed as activators | gsp mutant cells, cAMP HTRF, 30 min; control for the full effect not named in the record | AID 624287, 2012; active = well fitted activation curve with a large enough effect; inconclusive = small, poorly fitted or top-dose-only effect, or another doubt; inactive = no such curve, though single readings can be large or run the other way; cell line not stated here;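 further: phosphodiesterase inhibitor Ro 20-1724 added with compounds to block cAMP breakdown; potency means the concentration at half of the fitted maximal effect; nearly all actives have a fitted effect of over 60% in size; about a fifth of the inactives were tested at one dose only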
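Cells stably selected in G418 were plated at 2000/well, grown 16-24 hr, then given compounds in DMSO with the PDE inhibitor […] (300 uM solution added) for 30 min at 37C; cAMP was read by HTRF.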
An asterisk follows results filed as active; u = inconclusive; x = no result given; & = joins results of further samples; [ ] = remark or other dose.

SMILES,D2 potentiator,TRPV1 potentiator,Menin-MLL FL inh,gsp antagonist,Sfp PPTase inh,ClpP mod,gsp agonist
COc1ccc(S(=O)(=O)N2C3CCC2CC(NC(=O)NC2CCCCC2)C3)cc1 (stereo not given),-3,5,0.6,5%,8%,-6.0%,-34%[inhibitor]
CCc1ccc(NC(=O)CSCc2nc(N)nc(Nc3ccccc3CC)n2)cc1,-8,-2,4.7,5%,8%,-3.6%,4%
COCc1c(C(=O)N/N=C\c2ccccn2)nnn1-c1nonc1N,-1,-14,-0.5,7%,56µM*,x,4%[15.4 µM]
Cn1c(C2CCCCC2)nc2cc(N)ccc21,-17,1,2.6,-3%,6%,-10%,18%
O=C(O)C(c1ccccc1)N1C(=O)/C(=C\c2ccc(O)c(O)c2)SC1=S (stereo not given),-1,-4,u,-6%,-9%,-1.7%,-43%[inhibitor]
CC(C)(C)C(=O)NCCN1C(=O)S/C(=C\c2ccc([N+](=O)[O-])cc2)C1=O,-10,20,-2.3,-32%,1%,0.8%,-8%
CCOc1cc(/C=N/Nc2nc(N3CCCC3)nc(N3CCCC3)n2)ccc1O,-2,-12,-6.8,-32%,-23%,u,9%
CCC(C)Sc1cc(-c2nc3cc(C)ccn3c2NC2CCCCC2)ccc1OC (stereo not given),-5,x,x,32µM*,x,u,u
CCOC(=O)CSc1nc2ccccc2c(=O)n1CCC(=O)NCCc1ccc(OC)c(OC)c1,-6,-15,2.4,10%,-5%,3.4%,-23%
COc1ccc(/C=C/C(=O)Nc2sc3c(c2C(=O)NCc2cccnc2)CCCC3)cc1,-1,-4,3.9,u,-16%,-3.8%,-8%
Cc1ccc2sc(NNC(=O)c3ccc4c(c3)OCCO4)nc2c1C,-3,21,0.4,-8%,28µM*,-8.3%,u
Cn1cc(CNC(=O)COc2ccc(Cl)cc2Cl)cn1,-6,10,-1.9,12%,-5%,-0.3%,-27%
Cc1sc(NC(=S)NC(=O)c2cccs2)nc1-c1ccc(C(C)C)cc1,-7,u,4.1,12%,-3%,-0.5%,-4%
Cc1cc(NC(=O)CN2C(=O)NC(C)(c3ccc(OC(F)F)cc3)C2=O)no1 (stereo not given),0,3,4.1,7%,2%,0.4%,-17%
CCC(c1nnnn1C1CCCC1)N(Cc1cccs1)Cc1cc2cc(C)ccc2[nH]c1=O (stereo not given),-12,-8,4.2,-13%,8%,-28%,-25%
O=C(NC(=S)N1CCN(Cc2ccc3c(c2)OCO3)CC1)c1ccc(Cl)cc1,-35,-11,4.9,3%,-7%,1.4%,-53%[inhibitor]
Cn1nc(-c2ccc(OCC(=O)Nc3ccccc3)cc2)c2ccccc2c1=O,8,3,4.2,u,-10%,-8.5%&-8.0%,25%
O=C(NCC1CCCCC1)c1ccccc1[N+](=O)[O-],-5,-4,-1.8,11%,5%,x,6%
CCN(CC)C(=O)c1cccc(NC(=O)C2=COCCO2)c1,-5,8,x,0%,x,-0.5%,-51%[inhibitor]
Cc1ccccc1N=Nc1c(O)n(C)c2ccccc12,-23,-10,13,5%,-26%,-12%,23%
O[C@@H]1C2CCCC1[C@]1(O)CCCCC1C2 (stereo not given in full),1,-3,5.1,5%,7%,-2.5%,-21%
COc1ccccc1C1CCN(C(=S)Nc2ccc(Br)cc2)CC1,-2,x,1.4,u,16%,x,15%
CCOc1ccc(NC(=O)CS(=O)(=O)c2cn(CC)c3ccccc23)cc1,-9,2,0.8,-6%,29%,-1.6%,-32%[inhibitor]
Cc1nnn(C23CC4CC(CC(CC(=O)Nc5ccc(C)c(C)c5)(C4)C2)C3)n1,-9,-15,5.9,-16%,2%,-1.5%,7%
N#C/C(=C\Nc1ccccn1)S(=O)(=O)c1ccc(Cl)cc1,-1,-22,-0.2,-2%,u,x,u
O=C(C1CC1)N1CCc2cc(S(=O)(=O)N3CCCc4ccccc43)ccc21,-27,6,5.6,-33%,5%,1.7%,-8%
O=C(C1CCN(c2nnc(-n3cccc3)s2)CC1)N1CCc2ccccc2C1,3,-3,5.4,-22%,-8%,-2.0%,u
COCCOCC(=O)Nc1ccc(S(=O)(=O)Nc2cc(C)nc(C)n2)cc1,-12,2,4.0,-2%,16%,0.6%,-16%
O=C(Nc1c(C(=O)N2CCOCC2)oc2ccccc12)c1ccccc1Cl,-15,-24,x,6%,11%,-1.0%,u
Cc1ccc(-c2n[nH]c(=S)c3ccccc23)cc1S(=O)(=O)NCC1CCCO1 (stereo not given),-9,-2,1.1,3%,6%,x,26%
O=C1CCc2ccccc2O1,-1,x,x,2%,x,-3.1%,3%
COC(=O)CN1C(CN2CCOCC2)=Nc2ccc(Br)cc2C1c1ccccc1 (stereo not given),-22,x,7.4,-16%,-9%,x,-5%[15.4 µM]
COc1cc(/C=C/c2ccc3cccc(O)c3n2)c(Br)cc1O,x,1,u,x,3%,x,x
Cn1c(Cn2c(=O)sc3ccccc32)nnc1SCC(=O)Nc1ccc(Cl)cc1,-3,6,-1.7,2%,5%,3.2%,-3%
COc1ccc(-n2c(SCC(=O)N3CCCCC3C)nnc2-c2cccnc2)cc1 (stereo not given),0,-6,-3.3,-20%,u,-1.7%,-29%
CC(Oc1cccc(Cl)c1)C(=O)Nc1cc(S(=O)(=O)N2CCOCC2)ccc1N1CCCC1 (stereo not given),-3,-4,x,-9%,x,-3.8%,-38%
S=C1Cc2ccccc2N1,-6,16,u,-1%,3.2µM*,-1.3%,9%
Clc1ccc(C2CC(c3cccs3)n3ncnc3N2)c(Cl)c1 (stereo not given),-2,2,1.6,-4%,-5%,-3.9%,-4%
Cc1cccc(NC(=O)c2c(O)c3cccc4c3n(c2=O)CCC4)n1,x,1,-0.3,x,4%,x,x
Cc1oc2cc(O)cc(C)c2c(=O)c1-c1cnn(-c2ccccc2)c1,-13,3,3.2,-23%,13%,-15%,-32%[inhibitor]
C=CCN1CCN(c2ccncc2S(=O)(=O)N2CCCCC2)CC1,-8,-13,-2.7,1%,10%,-0.6%,-14%[15.4 µM]
CCc1cc2c(=O)c(-c3ccc4c(c3)OCO4)coc2c(CN(C)C)c1O,-9,-20,0.3,-16%,0%,3.7%,-4%
CCNc1nc(NCC)n2c(SCC(=O)Nc3cc(Cl)ccc3OC)nnc2n1,-5,-2,x,8%,x,1.7%,2%
CCCCN(C(=O)C1CCCC1)c1c(N)n(Cc2ccccc2)c(=O)[nH]c1=O,1,x,x,7%,x,x,5%
Cc1nn(C)c(C(=O)NNC(=S)NC2CCCCC2)c1Cl,-37,6,-1.2,-4%,19%,1.7%,u
O=C(O)COc1ccc(S(=O)(=O)c2ccc(OCC(=O)O)cc2)cc1,-22,-11,3.0,6%,-6%,-0.6%,-5%
CCc1ccc(N2CC(C(=O)OCC(=O)Nc3ccc([N+](=O)[O-])cc3)CC2=O)cc1 (stereo not given),-18,-3,x,-16%,x,1.1%,8%
Cc1c(OCC(=O)N2CCC(C(=O)NCCCC(=O)O)CC2)ccc2c1oc(=O)c1ccccc12,-4,0,-0.6,-15%,17%,4.0%,6%
O=C(COc1ccc(N2CC(C(=O)O)CC2=O)cc1)Nc1cccc(C(F)(F)F)c1 (stereo not given),-8,0,-1.0,2%,14%,0.5%,-17%
Cc1cc(NC(=O)CSc2nnc(CNC(=O)c3ccc(F)cc3)o2)no1,0,2,x,14%,12%,0.7%,-4%[15.4 µM]

Continuation:
SMILES,D2 potentiator,TRPV1 potentiator,Menin-MLL FL inh,gsp antagonist,Sfp PPTase inh,ClpP mod,gsp agonist
CCOc1ccc(S(=O)(=O)NCc2ccc(C)cc2)c2cccnc12,0,3,-0.3,1%,3%,32µM*,-25%
CC(=O)NC1C(Oc2ccc(C)cc2)OC2COC(c3ccco3)OC2C1O (stereo not given),-21,4,3.5,2%,30%[activator],1.6%,0%
CC1(C)CC(=O)c2cnc3c(C#N)cnn3c2C1,-9,1,-1.2,3%,-6%,x,8%
COc1c(F)c(F)c(C(=O)O)c(Nc2cccc(C)c2)c1F,6,25,-3.9,-12%,6%,x,-24%
CCC(=O)NC(c1ccc(Cl)cc1Cl)c1ccc2cccnc2c1O (stereo not given),4,0,-2.3,-9%,7%,x,10%
C=CCNC(=O)c1onc(CSc2ccccn2)c1C(=O)NCC=C,-9,u,-0.4,1%,3%,-0.5%,-33%[inhibitor]
COc1ccc(CCN2C(=O)CC(N3CCN(C/C=C/c4ccccc4)CC3)C2=O)cc1OC (stereo not given),-20,-1,-0.5,7%,10%,x,13%[15.4 µM]
CC1CCC(NC(=O)CCNC(=O)c2ccc(Br)cc2)CC1 (stereo not given),-22,-2,x,5%,x,-3.6%,-2%
CCc1sc(C(C2C(=O)CC(C)(C)CC2=O)C2C(=O)CC(C)(C)CC2=O)cc1[N+](=O)[O-],-7,7,-4.5,u,11µM*,x,4%[15.4 µM]
O=C(OCC(=O)N1CCOCC1)c1ccc(Cl)c(S(=O)(=O)N2CCc3ccccc32)c1,-2,x,x,-25%,x,x,25%
COc1ccc(Nc2nc(C)nc3c2oc2ccccc23)c(OC)c1,-9,-2,0.9,-1%,-18%,x,-32%[inhibitor][15.4 µM]
COC(=O)c1ccc(N=Cc2c(-c3ccccc3)[nH][nH]c2=O)cc1,-4,-15,-0.5,12%,7%,2.3%,-21%

Bioassay records as filed in PubChem.
